# HPGD inh = HPGD (human) dehydrogenase inhibition | P15428 | purified HPGD, NADH fluorescence kinetic, PGE2 substrate | Potency, µM, for the others: top-dose activity change, negative = inhibition, actives largely listed as inhibitors | 4.3% of 150,000 active | AID 894; active = well fitted inhibition curve with a large enough effect (not every such curve was filed as active); inconclusive = small, poorly fitted or top-dose-only effect, or another doubt; inactive = no such curve, though single readings can be large or run the other way;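 further: top concentration of the series not given in the record; plate controls included wells without enzyme; inactives centre near -10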
# Target sequence (P15428 whole entry, looked up): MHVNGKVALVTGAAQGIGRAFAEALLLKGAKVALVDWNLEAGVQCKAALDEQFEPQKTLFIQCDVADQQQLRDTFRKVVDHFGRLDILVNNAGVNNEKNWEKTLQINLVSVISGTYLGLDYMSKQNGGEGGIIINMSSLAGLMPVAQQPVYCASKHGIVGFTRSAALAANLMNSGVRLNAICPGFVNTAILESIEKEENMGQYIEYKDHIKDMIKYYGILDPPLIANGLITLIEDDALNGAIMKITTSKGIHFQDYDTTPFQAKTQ
#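 NADH formation kinetics: reaction with 30 uM PGE2 and 1 mM NAD+ (final), 20 nM enzyme, Tris-HCl pH 8 with Tween 20, after 15 min compound preincubation at room temperature. Fluorescence change, last versus first of five reads.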
# An asterisk follows results filed as active; ? = inconclusive. On the % scale 0 is the no-effect control and ±100 the full control effect; potency means the concentration at half of the fitted maximal effect. These rows are one share of the data. The share of hits here may be higher or lower than overall.
SMILES,HPGD inh
COc1nc(OC)nc(N2CCC(NC(=O)C(Cc3ccc(C(C)C)cc3)NC(C)=O)CC2)n1 (stereo not drawn),-12%
O=C(NCc1ccco1)c1nn2c(C(F)(F)F)cc(-c3cccs3)nc2c1Br,-23%
COc1ccc(OC)c(NC(=O)C2C3CCC(C3=C(C)C)C2C(=O)O)c1 (stereo not drawn),1%
CC(=O)/C(=C\Nc1ccc(OCc2ccccc2)cc1)c1ccccc1,?
O=C(CN1C(=O)c2cccc3cccc(c23)C1=O)N1CCCCCC1,?
CC(C)Oc1ccc2c3c(c(=O)oc2c1)CCC3,?
O=C1/C(=C/c2cccc(F)c2)CSc2sccc21,-28%
Cc1nc2cnc(Oc3cccc(Cl)c3)nc2n(C[C@H]2CCCO2)c1=O,-9%
Cc1ccc(NC(=O)/C(=C\c2cccs2)NC(=O)c2ccccc2)cc1,-14%
Clc1ccc2[nH]cc(-c3nnnn3-c3ccc4ccccc4c3)c2c1,-23%
CC(C)n1c(N2CCN(CC(=O)Nc3ccc4c(c3)OCCO4)CC2)nc2ccccc21,-14%
Cc1ccc(N2C(=O)c3ccc(C(=O)N4CCN(c5ccccc5F)CC4)cc3C2=O)cc1,-2%
COCCNC(=O)c1ccc(NS(C)(=O)=O)cc1,?
CC(CN1CCCCC1)OC(=O)c1ccc(Cl)cc1 (stereo not drawn),-9%
CCc1ccc(C2C3=C(CC(C)(C)CC3=O)OC3=C2C(=O)CC(C)(C)C3)cc1,-27%
CSc1nc(-c2ccc(Cl)cc2)nn1S(=O)(=O)c1ccccc1,-14%
CCn1c(=S)[nH]c2ccccc21,-2%
C=C(Br)Cn1c(CC)nc2ccccc21,-14%
O=C(NCc1ccco1)c1cc2nc(-c3ccc4c(c3)OCO4)cc(C(F)(F)F)n2n1,?
CSc1cccc(NC(=O)c2ccco2)c1,-5%
O=C(CCC1CCCCC1)N1CCN(Cc2ccc3c(c2)OCO3)CC1,-6%
CCOC(=O)c1c(C)n(C)c2ccc(OC(=O)c3ccco3)cc12,-5%
CC1CN(S(=O)(=O)c2ccc(C(=O)Nc3nc(-c4cc5ccccc5o4)cs3)cc2)CC(C)O1 (stereo not drawn),?
CC(C)(C)n1nnnc1C(c1cc2cc3c(cc2[nH]c1=O)OCO3)N1CCN(c2ccccc2)CC1 (stereo not drawn),?
O=C(CCCC(=O)N(CC(=O)NC1CCCC1)C1CCCC1)Nc1ccccn1,-9%

# (more compounds)
SMILES,HPGD inh
C/C(=C\CNc1ncnc2nc[nH]c12)CO,-4%
Cc1ccc[n+](/C(C(=S)NCc2ccco2)=C(/[O-])c2ccccc2Cl)c1,-8%
COc1cc(-c2cc(OC)c3c(C)oc(C)c3c(=O)c2)ccc1O,?
COc1ccc(NCc2nnc(SCC(=O)Nc3cc(C)cc(C)c3)o2)cc1,-29%
N#C/C(=N\Nc1cccc2ccccc12)c1nnc2n1CCCCC2,18µM*
CCc1ccc(NC(=O)NCCN2CCc3ccccc3C2)cc1,-5%
Fc1ccc(CNC(=S)Nc2ccc(OC(F)F)cc2)cc1,-29%
CC(=O)Nc1ccc(NC(=S)NC(=O)c2oc3ccccc3c2C)cc1,-4%
CCCC(=O)Nc1sc2c(c1C#N)CCCCC2,-13%
O=C(CSc1nnc(-c2ccc3c(c2)OCCO3)o1)N1CCCC1,-25%
COC(=O)N/N=C/c1cc(Cl)cc(Cl)c1OCc1ccc(F)cc1,-20%
CCCNC(=O)COC(=O)c1cccnc1Nc1ccccc1F,-26%
Cc1cnc(NC(=O)CSc2nnc(Cc3ccccc3)o2)s1,-2%
N#Cc1c(-c2ccccc2)cc(-c2ccccc2)nc1SCc1nnc(-c2ccccc2)o1,?
COC(=O)CSc1nnc2c(C)cc3cc4c(cc3n12)OCCO4,-5%
CNc1ccc(/C=C/C(=O)c2ccc3c(c2)OCCO3)cc1[N+](=O)[O-],-28%
ClC1=C(Cl)C(Cl)(Cl)C(Cl)=C1Cl,-8%
O=C(CCCc1c[nH]c2ccccc12)NCc1ccc2c(c1)OCO2,-24%
O=C(NCc1ccco1)c1cc2ccc(O)cc2oc1=O,?
Cc1ccc(NC(=O)NCC(c2cccnc2)N2CCOCC2)cc1 (stereo not drawn),-6%
COc1ccc(N(C(=O)Cn2nnc(-c3ccc(Cl)cc3)n2)C(C(=O)NCC2CCCO2)c2ccc(C)cc2)cc1 (stereo not drawn),-4%
CCOC(=O)c1ccc(N2C(=O)CC(N(C)CCc3ccc(OC)c(OC)c3)C2=O)cc1 (stereo not drawn),-3%
Cc1ccc(SC(C)C(=O)NCCC2=CCCCC2)cc1 (stereo not drawn),-20%
CN(c1ccc(OCC(=O)N2CCCCC2)cc1)S(=O)(=O)c1cccs1,14µM*
COc1cc(NC(=O)COC(=O)CSc2ccc3ccccc3c2)c(C)cc1[N+](=O)[O-],-5%

# Continued.
SMILES,HPGD inh
N#Cc1ccc(C23CC4CC(CC(C4)C2)C3)[nH]c1=O,?
CC(=O)c1cccc(NC(=O)C2CCCN(S(C)(=O)=O)C2)c1 (stereo not drawn),-13%
COc1ccc(/C=C2\SC(=NCc3ccccc3)NC2=O)cc1,?
Cc1c(/C=N\NC(=O)c2csc3ccccc23)cnn1C,-3%
CCc1c(C)sc(NC(=O)OC)c1C(=O)N1CCOCC1,-9%
O=C(CCN1c2ccccc2Sc2ccccc21)Nc1ccccc1,-13%
O=C(NC1CCSC1=O)c1ccc(Oc2cccc(C(F)(F)F)c2)nc1 (stereo not drawn),-6%
O=C(N/N=C/c1ccco1)c1cccc([N+](=O)[O-])c1,-16%
CC1CCCCN1S(=O)(=O)c1ccc(C(=O)Nc2sccc2C(N)=O)cc1 (stereo not drawn),28µM*
CCCn1c(NCc2ccc3c(c2)OCO3)nc2ccccc21,-4%
CC(=O)c1ccc(NC(=O)CSCCO)cc1,-21%
C=CCSc1nnc(-c2nnc(SCC=C)n2CC)n1CC,-13%
CC(=O)NCC1=C(NC(C)=O)C2CC1C(C)(C)C2C (stereo not drawn),-11%
Cc1cc(S(=O)(=O)Nc2cc(C)c(O)c(C)c2)c(C)s1,-9%
COc1ccc(C2CC(c3cc(OC)ccc3OC)n3nnnc3N2)cc1 (stereo not drawn),-15%
COc1ccc(OC)c(S(=O)(=O)N2CCC(C(=O)NCCC3=CCCCC3)CC2)c1,-10%
O=C(Cc1ccccc1)N/N=C/c1cccn1-c1ccc([N+](=O)[O-])cc1,-21%
COc1c(Br)cc(Br)cc1/C=N/n1c(C)nnc1C,-1%
COc1ccc(S(=O)(=O)N(CC(=O)NCC2CCCO2)c2ccc(F)cc2)cc1OC (stereo not drawn),-4%
C=CCN(C(=O)CCC(=O)Nc1cc(C)on1)C(C(=O)NC1CCCC1)c1cccnc1 (stereo not drawn),-8%
Cc1cccc(CNc2ncnc3ccc(-c4cccc(NS(C)(=O)=O)c4)cc23)c1,?
COC(=O)c1cccc(NC(=O)c2ccc(S(=O)(=O)N3CCN(C)CC3)cc2)c1,-17%
COc1ccccc1/C=C/C=N/N1CCN(Cc2ccccc2)CC1,-12%
O=C(NCc1cn2ccccc2n1)c1ccco1,?
COc1cc(/C=C(/C#N)c2nc3ccccc3[nH]2)ccc1OCc1ccc(C(=O)O)o1,?

# In a second layout: entries from further up.
Molecule | HPGD inh
COc1ccc(N(C(=O)Cn2nnc(-c3ccc(Cl)cc3)n2)C(C(=O)NCC2CCCO2)c2ccc(C)cc2)cc1 (stereo not drawn) | -4%
CCOC(=O)c1ccc(N2C(=O)CC(N(C)CCc3ccc(OC)c(OC)c3)C2=O)cc1 (stereo not drawn) | -3%
Cc1ccc(SC(C)C(=O)NCCC2=CCCCC2)cc1 (stereo not drawn) | -20%
CN(c1ccc(OCC(=O)N2CCCCC2)cc1)S(=O)(=O)c1cccs1 | 14µM*
COc1cc(NC(=O)COC(=O)CSc2ccc3ccccc3c2)c(C)cc1[N+](=O)[O-] | -5%
N#Cc1ccc(C23CC4CC(CC(C4)C2)C3)[nH]c1=O | ?

# The listing picks up, repeating the 3 entries before the break.
SMILES,HPGD inh
COc1ccccc1/C=C/C=N/N1CCN(Cc2ccccc2)CC1,-12%
O=C(NCc1cn2ccccc2n1)c1ccco1,?
COc1cc(/C=C(/C#N)c2nc3ccccc3[nH]2)ccc1OCc1ccc(C(=O)O)o1,?
CN1c2ccccc2N(C)C1(C)c1cccc2ccccc12,-3%
COc1ccc(Cn2c(SCc3ccccc3C)nc3cc(OC)c(OC)cc3c2=N)cc1,-11%
O=C(Nc1ccc(S(=O)(=O)C(F)F)cc1)c1cccc(S(=O)(=O)N2CCOCC2)c1,-16%
FC(F)(F)c1cccc(-c2nnc(-c3ccccc3)c(N3CCOCC3)n2)c1,-19%
Cc1cccc(NC(=S)NNC(=O)c2ccccc2OC(F)F)c1,-11%
CCC1CCCCN1S(=O)(=O)c1ccc(S(=O)(=O)N(Cc2ccccn2)CC2CCCO2)cc1 (stereo not drawn),-1%
COc1ccc(CCNC(=O)c2ccncc2)cc1OC,-9%
CCc1nnc(NC(=O)C2COc3ccccc3O2)s1 (stereo not drawn),-7%
O=C(NC(=O)c1cccc(Cl)c1)OC[C@@H]1CCCN2CCCCC12 (stereo partly drawn),-11%
Cc1ccc(Nc2nc3ccccc3o2)cc1F,-10%
C=CCN1C(=O)CN=C1NCc1ccccc1,-6%
Cc1cc(OCC(=O)NC(C)(C)C)ccc1Cl,-16%
COc1ccccc1N1CCN(C(=O)c2sc3nc(-c4ccc(F)cc4)cn3c2C)CC1,-12%
C/C(=N\NC(=O)COc1cccc(Cl)c1)c1ccc2c(c1)OCCO2,-5%
O=C(Nn1c(SCc2ccc([N+](=O)[O-])cc2)nc2ccccc2c1=O)c1ccc(F)cc1,-26%
CCN(c1ccc(C)c(C)c1)S(=O)(=O)c1ccc2c(c1)CCN2C(=O)CCC(=O)O,-15%
Cc1ccc2[nH]cc(CCNC(=O)Nc3ccccc3)c2c1,-9%
CCCn1c(NC(=O)c2ccccc2)nc2ccccc21,-23%
O=C(CSc1nnc2ccccn12)c1ccc2c(c1)OCCO2,-27%
Cc1ccc(NC(=O)N2CCC(c3nc4c(nnn4Cc4cccc(Cl)c4)c(=O)[nH]3)CC2)cc1,2µM*
CC(C)C(NS(=O)(=O)c1cccc2nsnc12)C(=O)N1CCn2c1nc1ccccc12 (stereo not drawn),-5%
COC(=O)CC1=C(C(=O)OC)C(c2cccc(OCC(N)=O)c2)C(C#N)=C(N)O1 (stereo not drawn),-18%
NS(=O)(=O)c1ccc(NC(=S)N2CCN(c3ccccc3)CC2)cc1,-7%
Cn1cc(SCC(=O)Nc2nc3ccccc3s2)c2ccccc21,-10%
COC(=O)N1CCC2(CCN(C(=O)Nc3cccc(C#N)c3)CC2)CC1,-5%

# The listing continues.
SMILES,HPGD inh
CC1CCC(=NNC(=O)Cc2ccccc2)CC1 (stereo not drawn),4%
O=C(NCc1ccco1)c1cc2sccc2n1Cc1ccc(F)cc1,18µM*
COc1ccccc1-c1ccc(Nc2cccc(C(C)=O)c2)nn1,-16%
Cc1onc(-c2ccccc2Cl)c1C(=O)Nc1ccc(-n2nncc2-c2ccco2)cc1,-8%
CCC(OC(=O)c1cccs1)C(=O)NC1CCCCC1 (stereo not drawn),-12%
COc1cc(OC)cc(-c2nc(N)n[nH]2)c1,?
CN1C(=O)CC(N2CCN(c3ncccn3)CC2)C1=O (stereo not drawn),-6%
O=C(N/N=C/c1ccc(O)cc1)c1csc2ccccc12,-4%
CCOC(=O)c1sc2nc(CSCC(=O)OCc3ccc(C(=O)OC)o3)[nH]c(=O)c2c1C,?
Cc1ccc(/C=N/NC(=O)c2cccs2)s1,-26%
Cc1cc(NC(=O)Cn2nc(C(F)(F)F)c3c2CCC3)no1,2%
COc1ccccc1NC(=O)c1sc(NC(=O)c2ccco2)c(C#N)c1C,-28%
O=C(/C=C\Nc1cccc(F)c1)c1cccs1,-9%
CN(C1CCCCC1)S(=O)(=O)c1ccc(NC(=O)C2CCCCC2C(=O)O)cc1 (stereo not drawn),-4%
CCCCC(=O)Nc1nnc(C)s1,1%
COc1ccc(CCNS(=O)(=O)c2cn(C)c(=O)n(C)c2=O)cc1OC,0%
Cc1cccc(CNc2ncncc2-c2ccc3c(c2)OCO3)c1,?
CC(=O)NCC(=O)N(Cc1ccco1)C1(C(=O)NC2CCCCC2)CCCCC1,-11%
COCc1n[nH]c(=S)n1-c1cccc2ccccc12,-11%
COCc1cc(C)nc(SCC(=O)Nc2ccc3c(c2)OCO3)c1C#N,-11%
Cc1ccccc1Nc1nc(-c2sc(NC(=O)c3ccco3)nc2C)cs1,?
CC(=O)c1ccc(NC(=O)COC(=O)c2c3c(nc4ccccc24)/C(=C\c2cccs2)CCC3)cc1,?
Cc1ccc(C(=O)O/N=C\c2ccc(N3CCCCC3)c([N+](=O)[O-])c2)cc1,-16%
O=C(COC(=O)CCCNC(=O)c1ccc(Cl)cc1)Nc1cc(Cl)ccc1Cl,-18%
CCC(C(=O)Nc1ccc(OC)c(Cl)c1)c1ccccc1 (stereo not drawn),-6%
Fc1ccc(Nc2nc(-c3cccnc3)nc3ccccc23)cc1,?
O=C(Nn1c(C2CCCCC2)nc2ccccc2c1=O)c1cc(Cl)ccc1[N+](=O)[O-],-3%
Cc1cc(C(=O)N/N=C/c2cc(N=Nc3ccccc3)ccc2O)n[nH]1,-22%

# Already shown: 5 of the compounds above.
SMILES,HPGD inh
CN(C1CCCCC1)S(=O)(=O)c1ccc(NC(=O)C2CCCCC2C(=O)O)cc1 (stereo not drawn),-4%
CCCCC(=O)Nc1nnc(C)s1,1%
COc1ccc(CCNS(=O)(=O)c2cn(C)c(=O)n(C)c2=O)cc1OC,0%
Cc1cccc(CNc2ncncc2-c2ccc3c(c2)OCO3)c1,?
CC(=O)NCC(=O)N(Cc1ccco1)C1(C(=O)NC2CCCCC2)CCCCC1,-11%

# 2 records picked at random from those above, as already listed:
SMILES,HPGD inh
COc1ccccc1NC(=O)c1sc(NC(=O)c2ccco2)c(C#N)c1C,-28%
COc1cc(OC)cc(-c2nc(N)n[nH]2)c1,?

# Compound activity: PubChem, National Center for Advancing Translational Sciences (NCATS)
